Assay outcomes deposited in PubChem BioAssay by National Center for Advancing Translational Sciences (NCATS).
Bst PK mod – pyruvate kinase (B. stearothermophilus) modulation. partly purified Bacillus stearothermophilus pyruvate kinase, luminescence ATP production; ribose 5-phosphate activator present at AC10. Potency, µM. 1.2% of 51,000 active. AID 361; in the data active means potency below about 11 µM; inconclusive means mostly about 12 µM to 25 µM; inactive means weaker than that;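 the screen sought inhibitors and activators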;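 further: potency means the concentration at half of the fitted maximal effect; scaled between full activation by ribose 5 phosphate and full inhibition by luteolin; about four in five hits inhibit and the cells do not say which; series up to 57 µM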
YjeE inh – inhibitors of E. coli YjeE (TsaE); purified YjeE, fluorescence polarisation of a bound ADP probe; AID 605; Potency, µM; P0AF67; 0.05% of 71,000 active; active = well fitted falling curve; inconclusive = weaker or top-dose-only fall, or a rising curve; inactive = flat or poorly fitted curve;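 further: top concentration of the series not given in the record; excess ADP was the control for the full effect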
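Fluorescence polarization of a BODIPY Texas Red–ADP probe (2 uM) bound to purified YjeE (10 uM) was read after 15 min room-temperature incubation with compounds. Loss of polarization marks inhibitors; ADP serves as titrated control.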
An asterisk follows results filed as active; i = inactive; ? = inconclusive; . = not tested or not shown.

SMILES	Bst PK mod	YjeE inh
CN(C)c1ccc(N=Nc2cccc3ccoc23)cc1	.	i
Cc1ccc2oc(C(=O)NCc3ccc4c(c3)OCO4)c(C)c2c1	>57	i
CCOc1ccc(C(C)C)cc1S(=O)(=O)Nc1ccc(Cl)cn1	>57	i
c1cncc(CNc2ncn[nH]2)c1	.	i
Cc1cc2n(n1)C(c1ccsc1)Nc1ccccc1-2 (stereo not drawn)	?	i
Cc1nnc(NCCN2CCOCC2)[nH]c1=O	>57	i
CCOC(=O)C1CCCN(C(=O)Cc2c(C(=O)O)[nH]c3ccccc23)C1 (stereo not drawn)	>57	i
Cc1nc2ccccc2c(=O)n1NC(=O)COc1ccccc1	.	i
CC(=O)Nc1ccc(NC(=O)c2oc3cc(C)c(C)cc3c2C)cc1	.	i
CCN(CC)C(=O)CSc1nc2ncccc2[nH]1	>57	i
Cc1c(NC(=O)c2cnn3cccnc23)c(=O)n(-c2ccccc2)n1C	>57	i
CS(=O)(=O)N1CCCC(C(=O)NCc2ccc(F)cc2Cl)C1 (stereo not drawn)	>57	i
CCOC(=O)c1c(C)[nH]c(C(=O)OCC(=O)N2c3ccccc3CC2C)c1C (stereo not drawn)	>57	i
COc1cc(Cl)c(S(=O)(=O)NCCCN2CCOCC2)cc1Cl	>57	i
CCCCOc1ccc(/C=c2\sc3ncnn3c2=O)cc1	>57	i
CN(C)c1ccc(C2=NOC(CN3C(=O)c4ccccc4S3(=O)=O)C2)cc1 (stereo not drawn)	.	i
CC(C)COc1ccc(C(=O)NCc2ccco2)cc1	>57	i
CC(C)C(=O)Nc1ccc(Nc2ccccc2)cc1	.	i
CN1CCN(c2ncc3nc(-c4cn(C)c5ccccc45)c(=O)n(Cc4cccs4)c3n2)CC1	.	i
O=C1CCC(=O)N1CN(C(=O)c1ccco1)c1ccccc1	>57	i
CC1(C)Oc2ccc(C(=O)NC3CC3)cc2N(CC(=O)N2CCOCC2)C1=O	>57	i
CC1(C)C(=O)Nc2ccccc2N1C(=O)COC(=O)Cn1cnc2ccccc2c1=O	>57	i
O=S(=O)(c1ccc2ccccc2c1)N1CCN(S(=O)(=O)c2ccc3ccccc3c2)CC1	.	i
O=C(Cc1c(F)cccc1Cl)Nc1ccon1	>57	i
O=C(O)Cn1cc(C(=O)C2CC2)c2ccccc21	>57	i
COc1cccc(OCCn2ccnc2)c1	>57	i
CCN(CC)c1cccc(O)c1	.	i
CCN=c1sc(C(=O)NCCc2ccccc2)cc(=O)n1CC	>57	i
COC(=O)C1=C(C)NC(C)=C([N+](=O)[O-])[C@H]1c1ccccc1C(F)(F)F	.	i
COc1ccc(NC(=O)c2cncc(Br)c2)c(S(=O)(=O)N2CCOCC2)c1	>57	i
CCN(CC)CCn1c(SCC(=O)NCc2ccco2)nc2c(sc3ccccc32)c1=O	>57	i
Cn1cccc1Cc1nnc(SCC(=O)N2CCCC2)n1CCc1ccccc1	.	i
Cc1cccc(-c2c3c(=O)n(C)c(=O)n(C)c3cn2-c2ccccc2O)c1	>57	i
CNC(=O)C1(C)C=CC2(CCCCC2)N1C(C)=O (stereo not drawn)	.	i
CN(C)c1ccc(C(=S)NCc2ccco2)cc1	>57	i
NC[C@H]1O[C@@H](n2cnc3c(=O)[nH]c(N)nc32)[C@@H](O)[C@@H]1O	.	i
COc1ccc(-c2c3c(=O)n(C)c(=O)n(C)c3cn2C2CCCCC2)cc1	>57	i
Cn1c(=O)c(=O)n(C)c2cc(S(=O)(=O)NCCc3ccccc3)ccc21	>57	i
Cc1cc2ccccc2n1CCNC(=O)C(C)C	.	i
Cn1c(NCc2ccco2)nc2c1c(=O)n(Cc1ccc(Cl)cc1Cl)c(=O)n2C	>57	i
Cc1cc(C(=O)NCCC2=CCCCC2)c(C)o1	.	i
CC(=O)Cc1nsc(NC(=O)c2ccc(COc3ccccc3)o2)n1	>57	i
Cc1[nH]nc2c1C(CCc1ccccc1)C(C#N)=C(N)O2 (stereo not drawn)	>26	.
O=C(NCc1cccnc1)C1CC(=O)N(c2ccc(Cl)cc2)C1 (stereo not drawn)	>57	i
Cc1ccc(N=Nc2c(O)ccc3cc(S(=O)(=O)O)ccc23)cc1	.	i

Ordered by molecular weight (largest number first): some entries from above
SMILES	Bst PK mod	YjeE inh
O=S(=O)(c1ccc2ccccc2c1)N1CCN(S(=O)(=O)c2ccc3ccccc3c2)CC1	.	i
COc1cc(Cl)c(S(=O)(=O)NCCCN2CCOCC2)cc1Cl	>57	i
Cc1cccc(-c2c3c(=O)n(C)c(=O)n(C)c3cn2-c2ccccc2O)c1	>57	i
CCOC(=O)C1CCCN(C(=O)Cc2c(C(=O)O)[nH]c3ccccc23)C1 (stereo not drawn)	>57	i
CN(C)c1ccc(N=Nc2cccc3ccoc23)cc1	.	i

The listing continues:
SMILES	Bst PK mod	YjeE inh
CN1CCN(c2ccnc(-c3cccc(NS(C)(=O)=O)c3)n2)CC1	.	i
COc1ccccc1NC(=O)N1CCc2[nH]c3ccc(Cl)cc3c2C1	.	i
OCCSc1nncn1/N=C/c1c[nH]c2ccccc12	.	i
Nc1c(C(=O)N2CCOCC2)sc(=S)n1-c1ccccc1	>57	i
COc1ccc(OC)c(CN2CCN(C(=O)c3cccs3)CC2)c1	>57	i
Oc1ccc(-c2nc3cnccn3c2Nc2ccc3c(c2)OCCO3)cc1	.	i
CSCCC(NC(=O)c1cc(CC(C)C)oc1C)C(=O)O (stereo not drawn)	>57	i
Cc1ccc(OCC(O)CN2CCN(Cc3ccc4c(c3)OCO4)CC2)c(C)c1 (stereo not drawn)	>57	i
CN1C(=O)c2ccccc2C(C(=O)NCCCN2CCCC2)C1c1c[nH]c2ccccc12 (stereo not drawn)	>57	i
CSc1nc(-c2ccccc2)nc2[nH]ccc(=O)c12	.	i
Cc1cc(C)nc(NC(=O)CN2C(=O)c3ccccc3C2=O)n1	.	i
CC(=O)N1CCN(C(=S)c2ccc(N(C)C)cc2)CC1	.	i
Cc1ccc(-c2csc3nnc(SCC(=O)Nc4nsc(-c5ccccc5)n4)n23)cc1	>57	i
COc1ccc(S(=O)(=O)Nc2ccc3c(c2)OCO3)cc1OC	>57	i
OC(COc1cccc(OCC(O)CN2CCOCC2)c1)CN1CCOCC1 (stereo not drawn)	>57	i
CN1CCCc2cc3c(C(F)(F)F)cc(=O)oc3nc21	.	i
Cc1ccc(OCC(=O)Nc2cc(-c3nn4c(C)nnc4s3)ccc2C)cc1	.	i
C#CC(C)(C)NC(=O)c1ccccc1OC	>57	i
COc1ccc(S(=O)(=O)N(C)CC(=O)NC2CCCC2)cc1Cl	>57	i
O=C1[C@@H]2[C@H](C(=O)N1n1cnnc1)[C@H]1C=C[C@@H]2C1	>11	.
CCCOC(=O)c1ccc(NC(=O)CCC(=O)OCC)cc1	.	i
Cc1c(N(C)CS(=O)(=O)O)c(=O)n(-c2ccccc2)n1C	.	i
COc1ccc(N2C(=O)CN=C2Nc2cccc(C)c2C)cc1OC	>57	i
CCN(CC)C(=O)CSc1nnc(-c2ccc(F)cc2)n1N	>57	i
CC1(c2ccco2)NC(=O)NC1=O (stereo not drawn)	>26	.
COc1ccc(-c2nc(C#N)c(NCCCN(C)C)o2)cc1OC	.	i
N#CCSc1n[nH]c2nc3c(c(=O)n12)C1(CCCC1)Cc1ccccc1-3	>57	i
CCOC(=O)C1=C(C)Nc2nnnn2C1c1c[nH]c2ccccc12 (stereo not drawn)	>57	i
C/C(=C1/SC(N2CCCC2)=NC1=O)c1ccc(Br)cc1	>57	i
CCc1ccccc1NC(=O)N[C@@H](C)C(=O)O	>57	i
Cc1ccc(C)c(/C(O)=C2\C(=O)C(=O)N(CCCN3CCOCC3)C2c2cccnc2)c1 (stereo not drawn)	.	i
CCC(Sc1nccn1C)C(=O)Nc1nnc(C)s1 (stereo not drawn)	.	i
O=C(c1ccco1)N1CCN(c2nc3ccsc3c(=O)s2)CC1	.	i
CN1CCCN(C(=O)c2ccc(Cl)c(S(=O)(=O)N(C)c3ccccc3)c2)CC1	>57	i
CC1(C)CC(=O)c2sc(NC(=O)CN3CCOCC3)nc2C1	>57	i
COc1ccc(CCN2CC(C(=O)O)CC2=O)cc1 (stereo not drawn)	>57	i
Cn1c(=O)[nH]c(=O)c2c1nc(NCc1ccco1)n2CCCc1ccccc1	>57	i
COc1cc(C(=O)N2CCN(C(=O)C3CC3)CC2)cc(OC)c1OC	>57	i
CCN1C(=O)CC(N2CCC(C(=O)N3CCOCC3)CC2)C1=O (stereo not drawn)	>57	i
CCOC(=O)c1nnn(-c2nonc2NC(C)=O)c1C	>57	i
Cn1c(OCc2ccc3c(c2)OCO3)nc2c1c(=O)n(Cc1cccc(Cl)c1)c(=O)n2C	>26	.
CO[C@@H]1C[C@H](O[C@H]2[C@@H](C)[C@H](O[C@@H]3O[C@@H](C)C[C@@H](N(C)C)[C@@H]3OC(C)=O)[C@H](C)C[C@]3(CO3)C(=O)[C@H](C)[C@H](OC(C)=O)[C@H](C)[C@H](C)OC(=O)[C@@H]2C)O[C@H](C)[C@@H]1OC(C)=O	.	i
C=CCn1c(SCc2ccc(Cl)cc2)nc2c1c(=O)[nH]c(=O)n2C	>57	i
O=S(=O)(c1ccc(N2CCN(S(=O)(=O)c3ccc4c(c3)OCCO4)CC2)nc1)N1CCCC1	>57	i
COc1ncc2nc(C)c(=O)n(C)c2n1	.	i
CCCCC[C@H](O)/C=C/C1=C(CCCCCCC(=O)O)C(=O)CC1	>26	.
O=C(COC(=O)Cc1ccsc1)NC1CCCCCC1	>57	i
COc1ccc(N(CC(=O)Nc2ccc(C)c(C)c2)S(=O)(=O)c2c(C)n[nH]c2C)cc1	>57	i
COC(=O)c1cc2ccsc2n1CC(=O)Nc1ccc(N(C)C)cc1	>57	i
CCN1C(=O)/C(=C\N2CCN(C)CC2)SC1=S	>57	i
COC(=O)CN(C(=O)CSc1nnc(-c2cccc(OC)c2)o1)c1ccc(OC)cc1	>57	i
CN1CCN(CCc2ccc(Cl)c(Cl)c2)CC1	.	i
c1ccc(-c2nn3c(-c4ccco4)nnc3s2)nc1	i	i
Cc1ccc(S(=O)(=O)N2CCCC2C(=O)NCc2ccco2)cc1 (stereo not drawn)	>57	i
Cc1ccc(N)c([N+](=O)[O-])c1	.	i
COCCn1c(-c2ccccc2)nc2oc3ccccc3c(=O)c2c1=O	>57	i
O=C(Nc1nc2ccccc2n1CCN1CCOCC1)c1cn(-c2ccccc2)nc1-c1ccccc1	>57	i
CC(=O)c1ccc(-c2nc3ccccc3n2C)o1	>57	i
O=c1c2[nH]c3ccc(Cl)cc3c2ncn1Cc1ccccn1	>57	i
Nc1nc(C2C(=O)CCCC2=O)cs1	>57	i

Six records picked at random from those above, as already listed:
SMILES	Bst PK mod	YjeE inh
O=C(Nc1nc2ccccc2n1CCN1CCOCC1)c1cn(-c2ccccc2)nc1-c1ccccc1	>57	i
c1ccc(-c2nn3c(-c4ccco4)nnc3s2)nc1	i	i
O=c1c2[nH]c3ccc(Cl)cc3c2ncn1Cc1ccccn1	>57	i
O=C(COC(=O)Cc1ccsc1)NC1CCCCCC1	>57	i
CN1CCN(CCc2ccc(Cl)c(Cl)c2)CC1	.	i
COc1ccc(N(CC(=O)Nc2ccc(C)c(C)c2)S(=O)(=O)c2c(C)n[nH]c2C)cc1	>57	i

Remaining list, next part
SMILES	Bst PK mod	YjeE inh
O=C(NCc1ccncc1)c1ccc(Cl)c(S(=O)(=O)N2CCOCC2)c1	>57	i
O=C(Cc1nn[nH]n1)NCc1ccccc1Cl	>57	i
CC1CCC(C(=O)NC(C(=O)N2CCN(c3ccccn3)CC2)C(C)C)CC1 (stereo not drawn)	>57	i
Cc1noc(C)c1C(=O)N1CCC2(CC1)CCN(C(c1ccccc1)c1ccccc1)CC2	.	i
CC1NC(=O)NC1CCCCC(=O)O (stereo not drawn)	.	i
O=C(O)C1C2C=CC(C2)C1C(=O)Nc1ccc2c(c1)OCCO2 (stereo not drawn)	>57	i
Cc1ccc(Nc2nc(CSc3nnnn3-c3ccccc3)cs2)cc1	.	i
CCOC(=O)N1CCN(c2cc3[nH]c(=S)[nH]c3cc2F)CC1	>57	i
Cc1[nH]c2ccc(-c3nnc(SCC(=O)c4ccccc4F)o3)cc2c1C	>57	i
O=C(CSc1nnc2sc3ccccc3n12)NCc1ccco1	.	i
CCOc1ccc(-n2c(=O)cc(N3CCN(c4ccccc4)CC3)[nH]c2=O)cc1	>57	i
CCc1ccc2[nH]c(=O)c(CN(CCN(C)C)C(=O)Nc3ccccc3OC)cc2c1	>57	i
Cc1csc2ncc(C(=O)Nc3ccc(C(F)(F)F)cc3)c(=O)n12	.	i
O=C(Oc1cc2oc(=O)c3c(c2cc1Cl)CCCC3)c1ccco1	.	i
O=P(O)(CCCP(=O)(O)CCc1ccccc1)CCc1ccccc1	>57	i
COC(=O)c1[nH]c2ccc(C)cc2c1NC(=O)CN1CCCC(C)(C)C1	>57	i
CCOc1ccc(C2/C(=C(\O)c3cccc(OC)c3)C(=O)C(=O)N2c2cc(C)on2)cc1OC (stereo not drawn)	>57	i
Cc1cc2oc(=O)cc(CN3CCN(C/C=C/c4ccccc4)CC3)c2cc1O	>57	i
CC(C)CN1CCC2(CC1)CCN(C(=O)c1csnn1)CC2	.	i
O=C(NCC1CCCO1)c1cccc(-n2cnnn2)c1 (stereo not drawn)	>57	i
O=C(CCN1C(=O)c2ccccc2C1=O)NC1=NCCS1	>57	i
O=C(CCNS(=O)(=O)c1cccc2nonc12)N1CCN(c2cccc(Cl)c2)CC1	>57	i
O=C(c1ccco1)N1CCN(C(=O)c2cnn3c(C(F)(F)F)cc(-c4cccs4)nc23)CC1	>57	i

This is a subset (hit frequency here may not be typical).
